Assay outcomes deposited in PubChem BioAssay by several laboratories.
HSV replic up: increases HSV replication in cells | HSV replication augmentation in cells, fold increase | maximum fold increase | actives 0.005% (n = 220,000);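 active = peak rise of 1.5-fold or more in the series; inconclusive = self-fluorescent or not available for retest; tested in PC3 cells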;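 note: first round at 10 µM; read as green reporter fluorescence; hits show the peak of a series up to 25 µM; 1 = signal of infected wells without compound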
PKD1 inh: blocks activity of human protein kinase D1; Q15139; inhibition, %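 (about 10 µM by stock and volumes)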; actives 0.056% (n = 200,000); PKD1 kinase fluorescence polarization assay;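 active = inhibition of 50% or more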;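 note: controls were vehicle for no effect and a reference inhibitor for full effect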
INS promoter inh: TRM-6 insulin promoter activity inhibition; TRM-6 cells (human fetal islet line), insulin promoter-eGFP reporter, imaging; reporter expression induced with tamoxifen; inhibition, % at 2 µM; actives 0.9% (n = 130,000); AID 1273;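 active = inhibition above the mean plus 3 SD, with well images judged a real hit on visual review, cut at about 60% in these data, passing the limit was not always enough; inconclusive = inhibition over the cutoff but images rejected on review; inactive = inhibition not above the cutoff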
GALR2 ag: activates the human galanin receptor 2; GALR2-expressing cells, agonist activation read-out; O43603; actives 0.48% (n = 140,000); activation, %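 (tested at 5 µM)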;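 active = above mean plus 3 SD of all compounds, about 5% in these data, not always enough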;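 note: 0% = vehicle buffer wells and 100% = reference agonist at full effect; tested in CHO reporter cells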
Target sequence (O43603 whole entry, looked up): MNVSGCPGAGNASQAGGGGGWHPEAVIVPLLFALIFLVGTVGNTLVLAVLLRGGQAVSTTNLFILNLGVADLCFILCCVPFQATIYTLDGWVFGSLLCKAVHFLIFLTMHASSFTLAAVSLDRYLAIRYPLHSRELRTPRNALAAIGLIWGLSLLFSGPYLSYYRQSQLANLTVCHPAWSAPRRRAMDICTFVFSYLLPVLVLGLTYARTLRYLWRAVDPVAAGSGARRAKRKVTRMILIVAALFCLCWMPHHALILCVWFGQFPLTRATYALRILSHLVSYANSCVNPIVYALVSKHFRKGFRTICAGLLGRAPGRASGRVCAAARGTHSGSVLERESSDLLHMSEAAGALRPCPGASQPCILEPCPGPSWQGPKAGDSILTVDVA
RGS16-Gao: modulates binding between human RGS16 and Galphao; O15492+P09471; bead-based flow cytometry RGS16-Galphao binding, fluorescence; actives lie on both sides; binding response (% of control), % at 10 µM; actives 0.38% (n = 220,000);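 active = below 25% or above 175%, edge rows of some plates excepted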;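 note: Galphao activated by GDP with aluminum fluoride before binding; 100% = wells without compound and 0% = beads without RGS; some results beyond the cut were filed as inactive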
Target sequence (O15492 whole entry, looked up): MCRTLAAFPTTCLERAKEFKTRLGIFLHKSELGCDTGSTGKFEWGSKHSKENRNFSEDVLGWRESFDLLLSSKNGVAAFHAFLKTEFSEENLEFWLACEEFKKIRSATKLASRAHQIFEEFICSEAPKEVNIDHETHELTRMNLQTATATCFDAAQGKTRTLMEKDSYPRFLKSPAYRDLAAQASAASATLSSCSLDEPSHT
Target sequence (P09471 whole entry, looked up): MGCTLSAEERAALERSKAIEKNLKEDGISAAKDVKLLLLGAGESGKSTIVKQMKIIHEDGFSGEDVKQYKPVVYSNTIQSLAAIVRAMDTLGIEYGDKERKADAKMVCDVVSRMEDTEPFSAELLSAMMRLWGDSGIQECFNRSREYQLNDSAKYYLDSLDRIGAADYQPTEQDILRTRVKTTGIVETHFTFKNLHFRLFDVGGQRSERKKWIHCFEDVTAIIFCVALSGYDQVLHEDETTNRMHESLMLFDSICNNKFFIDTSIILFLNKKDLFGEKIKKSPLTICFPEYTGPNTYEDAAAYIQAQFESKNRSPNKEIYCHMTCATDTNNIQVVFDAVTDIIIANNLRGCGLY
INS promoter inh cell count: recorded beside INS promoter inh, whose call it bears; normalized cell count, %; measured here: cell count, toxicity; reference of the scale not given here;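 cells exposed to compound for 48 h; stained nuclei by imaging scaled within each plate; lower means fewer cells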
HSV replic up primary fold: second read-out of HSV replic up, no call of its own (marks repeat the call); fold increase; compound at 10 µM; measured here: primary screen fold increase 10 uM; tested in PC3 cells;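 GFP signal in the first replicate; 1 = infected wells without compound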
Active calls of the source: *; i = inactive; ? = inconclusive; · = no result given.

A first look:
Screens in order: HSV replic up | HSV replic up primary fold | PKD1 inh | INS promoter inh | INS promoter inh cell count | GALR2 ag | RGS16-Gao
- COc1ccc(NC(=O)OCCN2CCN(Cc3ccccc3)CCC2=O)cc1
→ i | 1.17 | -7.9 | -90.0 | 88.4 | 0.1 | 106.2
- Cc1ccc(S(=O)(=O)NNC(=S)Nc2cccc(F)c2)cc1
→ i | 0.95 | · | · | · | · | 102.7
- CCOc1ccc(N2C(=O)CC(N(C)Cc3ccccc3)C2=O)cc1 (configuration not stated)
→ i | 1.02 | 4.5 | -14.3 | 98.9 | -1.9 | 124.8

Results, from the first entry:
Screens in order: HSV replic up | HSV replic up primary fold | PKD1 inh | INS promoter inh | INS promoter inh cell count | GALR2 ag | RGS16-Gao
- COc1ccc(NC(=O)OCCN2CCN(Cc3ccccc3)CCC2=O)cc1
→ i | 1.17 | -7.9 | -90.0 | 88.4 | 0.1 | 106.2
- Cc1ccc(S(=O)(=O)NNC(=S)Nc2cccc(F)c2)cc1
→ i | 0.95 | · | · | · | · | 102.7
- CCOc1ccc(N2C(=O)CC(N(C)Cc3ccccc3)C2=O)cc1 (configuration not stated)
→ i | 1.02 | 4.5 | -14.3 | 98.9 | -1.9 | 124.8
- CN(CC(=O)NCc1ccncc1)S(=O)(=O)c1ccc(Cl)cc1
→ i | 0.92 | 5.1 | · | · | · | 105.7
- Clc1ccc(OCCSc2ncccn2)cc1
→ i | 1.09 | -3.2 | 66.2* | 114.7* | -0.8 | 95.8
- C/C(=N\Nc1cccc(Cl)c1)c1ccncc1
→ i | 1.02 | 4.5 | · | · | · | 101.0
- Cn1ccc(=S)c2ccccc21
→ i | 0.82 | -5.7 | 88.9* | 66.0* | · | 98.5
- O=C1CC(=O)Nc2cc(S(=O)(=O)N3CCN(c4cccc(C(F)(F)F)c4)CC3)ccc2N1
→ i | 0.95 | -6.3 | 17.6 | 77.5 | · | 100.7
- O=C(CN(C(=O)c1ccc(Cl)cc1Cl)N1C(=O)C2C3C=CC(C3)C2C1=O)c1ccc(F)cc1 (configuration not stated)
→ i | 1.08 | -6.5 | -13.9 | 76.2 | 0.8 | ·
- COc1ccc2c(C(=O)CN3CCC(C)CC3)c[nH]c2c1
→ i | 0.91 | -1.5 | 27.8 | 82.3 | -1.8 | 93.3
- O=C(NCc1ccco1)/C(=C\c1cccs1)NC(=O)c1ccco1
→ i | 0.91 | -7.1 | · | · | · | 103.3
- O=C(CCn1c(=O)c2ccccc2n(Cc2ccccc2)c1=O)NC1CCN(Cc2ccccc2)CC1
→ i | 0.95 | · | · | · | · | 104.6
- CC1(C)Cc2c(C#N)c(N)sc(=S)c2CS1
→ i | 1.26 | -1.0 | -23.5 | 91.1 | -0.9 | 89.3
- CC12CC(c3ccccc3O1)N(C(=O)c1ccco1)C(=S)N2c1ccc(F)cc1 (configuration not stated)
→ i | 0.69 | 12.5 | -27.9 | 117.5 | -1.7 | 106.0
- Cc1cc(Cl)cc(Cl)c1OCCCCN(C)C
→ i | 0.95 | 1.0 | -71.0 | 78.6 | 0.1 | 89.9
- CCOc1ccc(NC(=NCc2ccc3c(c2)OCO3)SC2CC(=O)N(c3ccccc3)C2=O)cc1 (configuration not stated)
→ i | 0.97 | -9.3 | 61.1 | 99.8 | -0.4 | 42.0
- CCCc1nn(C)c(C(=O)Nc2ccc(Cl)cc2)c1Cl
→ i | 0.87 | -0.5 | · | · | -0.9 | 109.2
- NC(=S)Nc1ccc(C(F)(F)F)cc1Cl
→ i | 0.95 | · | · | · | · | 104.0
- CC(C)c1cc(C(=O)NC2CCCCC2)no1
→ i | 0.98 | -13.3 | · | · | -1.5 | 100.7
- CC(C)(C)c1cc(C(=S)N2CCN(CCO)CC2)cc(C(C)(C)C)c1O
→ i | 0.83 | -8.5 | -47.6 | 118.9 | -0.3 | 80.5
- COc1ccc(CNC(=O)c2ccc(-c3ccccc3)cc2)cc1OC
→ i | 0.98 | 9.0 | -7.7 | 137.1 | -0.1 | 104.0
- COc1ccc(-c2cc(C(F)(F)F)n3nc(C(=O)O)nc3n2)cc1
→ · | · | -13.9 | · | · | -1.3 | 101.5
- COc1ccc(C)cc1NC(=O)Nc1ccccc1
→ i | 1.12 | 0.9 | 16.7 | 122.1 | -1.9 | 97.7
- COc1ccc(Cc2nnc(SCc3nc4ccccc4c(=O)[nH]3)n2C)cc1
→ i | 0.9 | -5.2 | · | · | 0.7 | 102.3
- Cc1ccccc1C(=O)c1cccn1CC(=O)NCc1ccccc1
→ i | 0.95 | 5.8 | · | · | · | 101.0
- CCCCOc1ccc(-c2cn3ccccc3n2)cc1[N+](=O)[O-]
→ i | 0.73 | -7.5 | 40.0 | 169.6 | 2.0 | 125.4
- COc1ccc(S(=O)(=O)NCCOc2ccccc2)cc1C
→ i | 1.04 | -4.2 | · | · | · | 100.0
- COc1ccc(-c2nn(-c3ccccc3)cc2/C=C/C(=O)OCC(=O)Nc2ccc(C#N)cc2)cc1
→ i | 0.98 | -7.5 | 11.7 | 82.0 | -1.7 | 107.0
- Cc1ccc(-c2cc(C(=O)N/N=C/C=C/c3ccco3)c3ccccc3n2)cc1C
→ · | · | 2.6 | 0.0 | 95.3 | -1.5 | 97.0
- O=C(Nc1ccccc1)c1ccc(C(=O)Nc2ccccc2)nc1
→ i | 0.95 | -10.4 | · | · | · | 100.6

Shown with tabs: 3 of the compounds above
canonical_smiles	HSV replic up	HSV replic up primary fold	PKD1 inh	INS promoter inh	INS promoter inh cell count	GALR2 ag	RGS16-Gao
CCCCOc1ccc(-c2cn3ccccc3n2)cc1[N+](=O)[O-]	i	0.73	-7.5	40.0	169.6	2.0	125.4
CC(C)c1cc(C(=O)NC2CCCCC2)no1	i	0.98	-13.3	·	·	-1.5	100.7
O=C1CC(=O)Nc2cc(S(=O)(=O)N3CCN(c4cccc(C(F)(F)F)c4)CC3)ccc2N1	i	0.95	-6.3	17.6	77.5	·	100.7

Remaining list, next part
Screens in order: HSV replic up | HSV replic up primary fold | PKD1 inh | INS promoter inh | INS promoter inh cell count | GALR2 ag | RGS16-Gao
- Nc1ncnc2nc(SCC(=O)N3CCN(c4ccccc4)CC3)[nH]c12
→ i | 0.94 | 1.3 | -21.1 | 74.5 | -1.0 | 100.4
- COc1ccccc1NC(=O)Nc1nnc(CC(=O)Nc2cccc(C)c2)s1
→ i | 0.97 | · | · | · | · | 99.2
- NS(=O)(=O)c1ccc(NC(=S)Nc2nn(Cc3ccc(Cl)cc3Cl)cc2Cl)cc1
→ i | 1.06 | 3.6 | -52.4 | 115.7 | 0.9 | 96.7
- Cc1c(Nc2ccc(C=O)cc2)c(=O)n(-c2ccccc2)n1C
→ i | 1.01 | -0.3 | 0.0 | 71.1 | · | 101.0
- Cc1ccc(N2C(=O)C(Cc3ccc(O)cc3)NC2=S)cc1C (configuration not stated)
→ i | 0.98 | -10.3 | 42.9 | 93.0 | -0.1 | 107.3
- Cn1c(NNC(=O)C2CCCCC2)cc(=O)n(C)c1=O
→ i | 0.96 | -1.2 | · | · | · | 102.5
- Cc1ccc(S(=O)(=O)N2CCN(CC(=O)N(CC(C)C)c3c(N)n(CC(C)C)c(=O)[nH]c3=O)CC2)c(C)c1
→ i | 0.9 | -4.8 | 19.4 | 79.5 | -0.8 | 105.3
- CCOc1ccc(/C=N/NC(=O)Cc2csc(Nc3cccc(C(F)(F)F)c3)n2)cc1
→ i | 0.89 | -4.4 | -117.4 | 0.8 | -0.8 | 104.4
- C=CC[n+]1c(-c2ccc(OC)c(OC)c2)csc1NNC(=O)Nc1ccccc1
→ i | 1.04 | -5.7 | 28.6 | 133.8 | -0.3 | 96.1
- Cc1cccc(Nc2nnc(SCC(=O)Nc3ccccc3[N+](=O)[O-])s2)c1
→ i | 1.02 | 0.6 | 18.4 | 81.5 | -0.5 | 61.9
- O=C(CN1CCCC1)NC(=O)NC1CCCC1
→ i | 0.9 | -6.1 | 57.1 | 104.8 | · | 107.6
- O=C(Nc1ccc(O)c2c(=O)cc(-c3ccccc3Cl)oc12)c1ccccc1Cl
→ i | 1.02 | -8.1 | -95.2 | 94.4 | -1.9 | 100.6
- CCOC(=O)C1CCN(C(=O)Cc2cccc3ccccc23)CC1
→ i | 0.91 | -6.3 | 22.2 | 61.8 | -0.1 | 94.0
- Cc1ccc(SCC(=O)Nc2ccc3c(c2)C(=O)NC3=O)cc1
→ i | 0.88 | 4.4 | -129.4 | 110.6 | · | 99.4
- CCCCC(=O)N=c1sc2cc([N+](=O)[O-])ccc2n1C
→ i | 0.75 | 1.0 | · | · | · | 103.9
- COc1ccc(C(=O)/C=C/C(=O)N(CC(=O)NC2CCCCC2)Cc2cccs2)c(O)c1
→ i | 0.81 | 4.7 | · | · | · | 113.8
- CCN1C(=O)c2cccc3c(NC(=O)c4ccc(OC)c(OC)c4)ccc1c23
→ i | 1 | -22.0 | · | · | 0.0 | 102.8
- COc1ccc(C(C(=O)NC2CCCC2)N(Cc2cccs2)C(=O)c2ccn[nH]2)cc1OC (configuration not stated)
→ i | 1 | -9.3 | · | · | · | 101.4
- NCCCC[C@@H]1NC(=O)c2cc([N+](=O)[O-])cc(F)c2NCCCC[C@@H](C(N)=O)NC(=O)CNC1=O
→ i | 0.88 | -4.3 | 9.1 | 143.6 | -0.9 | 98.8
- CCOc1ccc(OCC)c(NC(=O)Cn2c(C)nc3ccccc3c2=O)c1
→ i | 0.98 | -8.3 | 42.9 | 47.5 | · | 100.7
- O=C(CCS(=O)(=O)c1ccccc1)Nc1nccs1
→ i | 0.92 | -5.8 | · | · | -2.1 | 96.8
- O=C(O)C(Cc1ccccc1)n1cnnn1 (configuration not stated)
→ · | · | 0.4 | · | · | -4.0 | 104.8
- CC(O)c1nc2ccc(C(=O)O)cc2[nH]1 (configuration not stated)
→ i | 0.81 | · | · | · | · | 91.5
- O=[N+]([O-])c1ccc2[nH]nc(-c3ccccc3)c2c1
→ i | 0.92 | 20.9 | -11.8 | 162.0 | 0.5 | 103.8
- CCCc1nc2ccccc2c(C(=O)OCc2nnc(-c3cc(OC)c(OC)c(OC)c3)o2)c1CC
→ · | · | 5.4 | · | · | 0.8 | 113.8
- O=C(O)CSc1nc2c(cnn2-c2ccccc2)c(=O)n1-c1ccc(Br)cc1
→ i | 0.84 | 4.2 | 50.0 | 157.4 | -0.9 | 110.8
- CC1=CC2=NC(=O)/C(=C/c3coc4ccc(Cl)cc4c3=O)C(=N)N2O1
→ ? | · | · | · | · | · | 98.7
- CC(=O)Nc1ccc(NC(=O)CN2CCCC(C)C2)c(Cl)c1 (configuration not stated)
→ i | 1.03 | 6.7 | -7.7 | 132.7 | -3.0 | 107.1
- Cc1ccc(S(=O)(=O)Nc2ccc(NC(=O)Nc3cccc(C(F)(F)F)c3)cc2)cc1
→ i | 1.11 | -6.3 | · | · | -0.2 | 58.6
- CCOC(=O)N1CCN(C(=O)c2cccc(NS(=O)(=O)c3ccc(F)c(F)c3)c2)CC1
→ i | 0.95 | -2.0 | -78.6 | 88.6 | 0.1 | 112.3
- CC1CC(C)CN(S(=O)(=O)c2ccc(C(=O)NN3CCOCC3)cc2)C1 (configuration not stated)
→ i | 1.06 | -3.0 | 11.1 | 144.2 | · | 102.6
- CC(=O)c1ccc(OC(=O)CCc2nc3ccccc3s2)cc1
→ i | 1.04 | 3.9 | · | · | · | 90.4
- Cc1ccc(S(=O)(=O)N2CCOCC2)cc1C(=O)NCc1ccc(F)cc1
→ i | 0.95 | -1.1 | -11.4 | 144.2 | -1.5 | 122.6
- CCOC(=O)C1CCCN(Cc2ccccc2Cl)C1 (configuration not stated)
→ i | 0.89 | -7.7 | 29.6 | 83.7 | -1.2 | 115.2
- COCCCNC(=O)Cn1nnc(-c2ccc(NC(=O)c3ccccc3OC)cc2)n1
→ i | 0.87 | 14.1 | · | · | -3.7 | 100.4
- Fc1ccccc1NC(=S)N(CCN1CCCCCC1)Cc1cccs1
→ i | 0.93 | 1.2 | -26.7 | 118.0 | · | 102.3
- O=C1Nc2ccccc2SC(c2ccccc2)C1O (configuration not stated)
→ i | 1.03 | -0.6 | -8.7 | 106.0 | -1.0 | 100.1
- CC1(C)Cn2c(nnc2-c2cccc(O)c2)S1
→ i | 0.82 | -3.5 | 90.9* | 173.2* | 0.1 | 103.1
- Cc1ccc(NC(=O)N2CCCC2)cc1Cl
→ i | 0.9 | 6.0 | 10.0 | 111.2 | · | 114.3
- CCS(=O)(=O)N1CCN(S(=O)(=O)c2ccc(F)cc2)CC1
→ i | 0.95 | 5.2 | · | · | -2.1 | 86.3
- C#CCn1c(=O)cc(C)c2ccccc21
→ i | 1.01 | -2.7 | · | · | · | 101.4
